Arbovirus inh – blocks arbovirus infection | arbovirus infection cell-based antiviral screen | inhibition, % at 10 µM | 200,000 compounds, 0.37% hits;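 active = inhibition from about 30%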;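 note: bluetongue infection of BSR cells; cell survival read as ATP light after 72 h; 0% = infected wells without compound and 100% = uninfected wells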
YopH PTP inh – inhibitors of Yersinia enterocolitica YopH tyrosine phosphatase; 140,000 compounds, 0.16% hits; AID 898; inhibition, %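 (about 10 µM by stock and volumes)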; fluorescence Ex485/Em525;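 active = inhibition of 50% or more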;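 note: controls were vehicle for no effect and minimum signal wells for full effect; inactives centre near -20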
Mtb bLac sens – beta-lactam sensitization of Mtb H37Rv; inhibition, % at 25 µM; 330,000 compounds, 0.27% hits; M. tuberculosis H37Rv growth with meropenem, percent inhibition; hits of this screen are not shown here; AID 434955;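 active = about 74% or more and at least 40 points above the plate without the antibiotic, then above 30% in a dose series; inconclusive = first-round hits that could not be retested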;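 note: growth measured after seven days incubation then overnight dye step; 0% = bacteria only wells and 100% = bacteria with antibiotic; twin plates without the antibiotic show which effects depend on it; some results filed as inactive read as strong as hits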
RecA splice inh – Mtb RecA intein splicing inhibition | 290,000 compounds, 0.75% hits | inhibition, %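 (about 9 µM by stock and volumes)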 | P9WHJ3 | cell-free RecA intein splicing, fluorescence | AID 2221; in the data active = inhibition above about 30%; inconclusive = no clear call, values can overlap the other calls;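 note: 0% = vehicle wells and 100% = reference inhibitor control wells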
Target sequence (P9WHJ3 whole entry, looked up, canonical isoform): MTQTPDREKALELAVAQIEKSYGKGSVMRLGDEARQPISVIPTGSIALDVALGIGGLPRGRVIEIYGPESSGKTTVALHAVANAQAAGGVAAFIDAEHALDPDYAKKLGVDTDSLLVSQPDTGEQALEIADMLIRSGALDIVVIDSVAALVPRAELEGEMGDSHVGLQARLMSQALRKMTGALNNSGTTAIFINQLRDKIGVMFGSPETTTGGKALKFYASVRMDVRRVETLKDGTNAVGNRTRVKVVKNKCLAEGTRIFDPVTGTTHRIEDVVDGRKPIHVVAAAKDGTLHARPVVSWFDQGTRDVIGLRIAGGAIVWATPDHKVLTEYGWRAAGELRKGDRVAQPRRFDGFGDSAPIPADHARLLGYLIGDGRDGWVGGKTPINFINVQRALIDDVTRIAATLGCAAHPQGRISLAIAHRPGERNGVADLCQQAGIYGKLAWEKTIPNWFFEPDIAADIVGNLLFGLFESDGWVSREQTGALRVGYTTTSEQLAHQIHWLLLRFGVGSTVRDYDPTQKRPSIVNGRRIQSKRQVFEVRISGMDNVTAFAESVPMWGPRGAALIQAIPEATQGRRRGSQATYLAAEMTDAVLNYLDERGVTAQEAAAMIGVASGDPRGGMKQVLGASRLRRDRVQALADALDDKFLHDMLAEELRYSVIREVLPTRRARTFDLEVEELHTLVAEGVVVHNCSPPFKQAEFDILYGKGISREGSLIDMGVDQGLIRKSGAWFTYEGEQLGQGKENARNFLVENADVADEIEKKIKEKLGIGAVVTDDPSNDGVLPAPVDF
Mtb H37Rv – M. tuberculosis H37Rv growth inhibitors, H37Rv strain (AID 1626) | M. tuberculosis H37Rv growth inhibition; higher % means a stronger effect | one-dose inhibition, % at 10 µM; IC50 in µM for titrated hits | 220,000 compounds, 0.95% hits;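 active = confirmed in a dose series; inconclusive = inhibition above 80% but not taken into the dose series; inactive = below 80% or under 30% at every dose of the series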;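 note: bacteria incubated seven days before Alamar blue readout; 0% = bacteria only wells and 100% = bacteria with antibiotic wells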
Arbovirus inh repeat – also measured in Arbovirus inh; calls as there; inhibition, %; measured here: 10K subset replicate screen; many hits read low in the repeat;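 first of two repeat runs on a subset; 0% = infected and 100% = uninfected wells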
* hit, by the source's call; ? = inconclusive; . = no result given. Not all compounds are listed, so the mix of outcomes need not match the whole.

The opening 7 compounds (preview)
SMILES | Arbovirus inh | YopH PTP inh | Mtb bLac sens | RecA splice inh | Mtb H37Rv | others
COc1nc(OC/C(N)=N/O)nc(N2CCOCC2)n1 | 1 | -36 | 4 | -1.2 | -6%
COc1cc(/C=C/C(=O)O)ccc1OS(=O)(=O)c1ccc(C)cc1 | 1 | . | 1 | 1.4 | 6%
COc1ccc(OC)c(N=C2C(=O)Nc3ccccc32)c1 | -14 | 2 | 97 | -2.4 | 18%
COC(=O)c1ccc(OC(=O)c2cccs2)cc1 | 0 | . | 20 | 26 | 18%
c1ccc(-n2cc(CNCCc3cscn3)c(-c3ccc4c(c3)OCO4)n2)cc1 | -26 | . | 3 | 2.8 | -10%
COc1ccc(CCNC(=O)c2nnc(CS(=O)(=O)c3ccccc3)o2)cc1OC | . | . | 1 | -2.3 | .
O=C(C1CCCO1)N1CCN(c2ccc(F)cc2)CC1 (centres undefined) | -1 | 23 | -10 | -0.7 | -6%

Results, from the start:
SMILES | Arbovirus inh | YopH PTP inh | Mtb bLac sens | RecA splice inh | Mtb H37Rv | others
COc1nc(OC/C(N)=N/O)nc(N2CCOCC2)n1 | 1 | -36 | 4 | -1.2 | -6%
COc1cc(/C=C/C(=O)O)ccc1OS(=O)(=O)c1ccc(C)cc1 | 1 | . | 1 | 1.4 | 6%
COc1ccc(OC)c(N=C2C(=O)Nc3ccccc32)c1 | -14 | 2 | 97 | -2.4 | 18%
COC(=O)c1ccc(OC(=O)c2cccs2)cc1 | 0 | . | 20 | 26 | 18%
c1ccc(-n2cc(CNCCc3cscn3)c(-c3ccc4c(c3)OCO4)n2)cc1 | -26 | . | 3 | 2.8 | -10%
COc1ccc(CCNC(=O)c2nnc(CS(=O)(=O)c3ccccc3)o2)cc1OC | . | . | 1 | -2.3 | .
O=C(C1CCCO1)N1CCN(c2ccc(F)cc2)CC1 (centres undefined) | -1 | 23 | -10 | -0.7 | -6%
COc1ccc(Cl)cc1NC(=O)Nc1cccc([N+](=O)[O-])c1C | -4 | -37 | -8 | 8.7 | 8%
CCN1CCCC1CNC(=O)c1cc(OC)c(OC)c(OC)c1 (centres undefined) | 8 | 1 | -1 | 1.2 | 0%
C=CCCN(C(CC(C)C)C(=O)OC)S(=O)(=O)c1ccccc1Br (centres undefined) | . | . | -4 | 8.6 | -11%
Cc1cccc(-n2c(O)c(C=Nc3ccccc3N)c(=O)[nH]c2=O)c1 | -4 | -9 | 3 | -2.4 | 0%
O=C(CN(C(=O)c1csnn1)c1ccc(Cl)cc1)NCCc1ccccc1 | . | . | 10 | -0.1 | .
CC(=O)NC(CC(=O)Oc1ccc(C)cc1Br)c1ccccc1 (centres undefined) | . | . | -5 | 2.1 | .
Cc1nn(-c2ccc(Cl)c(Cl)c2)c(C)c1C(=O)O | 6 | . | 1 | . | 1%
COc1cccc(-c2nn(-c3ccccc3)cc2C(=O)NCC(=O)O)c1 | 3 | -25 | -5 | 0.2 | 0%
O=C(Nc1c2c(nn1-c1cccc(Cl)c1)CS(=O)C2)c1ccc2c(c1)OCO2 (centres undefined) | . | . | -2 | -3.1 | .
COc1ccc(OC)c([N+](=O)[O-])c1C(N)=O | 0 | . | -5 | 5.5 | -3%
CCNC(=S)NNC(=O)Nc1ccccc1 | 4 | -18 | -12 | -0.3 | -12%
CCOC(=O)c1c(C)[nH]c(C(=O)Cn2c(=O)oc3ccccc32)c1C | -4 | 12 | 3 | 1.2 | 4%
Cc1ccc(C(C(=O)NCc2ccc(F)cc2)N(C(=O)c2csnn2)C2CC2)cc1 (centres undefined) | . | . | -9 | 0.8 | .
O=C(Cc1cn(Cc2cccc(Cl)c2)c2ccccc12)N1CCCC1 | -19 | -21 | 0 | 7.8 | 9%
Cc1cc(C)nc(-n2nc(C)cc2NC(=O)c2cccc(S(=O)(=O)N3CCOCC3)c2)n1 | 0 | -33 | . | . | -1%
COCCCNC(=O)Cn1nnc(-c2ccc(NC(=O)c3cccnc3)cc2)n1 | 6 | . | 3 | -0.7 | -3%
Cc1cc(C(=O)N/N=C/C=C/c2ccccc2)n[nH]1 | . | . | -1 | 0.3 | .
Cc1ccc2c(c1)N(CCC(=O)NCCCOC(C)C)C(=O)C(C)O2 (centres undefined) | -3 | -50 | 4 | -2.5 | -6%
COc1ccc(-c2ccc(-c3nnc(Cc4ccc(OC)c(OC)c4)o3)cc2)cc1 | 0 | -11 | -22 | . | 5%
Cc1ccc(C)c2c1cc(C)c1nnc(SCC(=O)c3cccs3)n12 | -4 | -5 | 5 | -2.0 | 11%
COc1ccc(N2CCN(C(=O)CCC(=O)N3CCOc4ccc(Cl)cc43)CC2)cc1 | . | . | 4 | 1.2 | .
C#CCOC(=O)C[N+](C)(C)CC#Cc1ccccc1 | 8 | . | -4 | 0.0 | 3%
CS(=O)(=O)N1CCC(C(=O)Nc2cc(C(F)(F)F)ccc2Cl)CC1 | -1 | -5 | 10 | 3.3 | -8%
Cc1ccc(N(CC(=O)Nc2ccc3c(c2)OCCO3)S(=O)(=O)c2c(C)noc2C)cc1 | 2 | -12 | 1 | -0.1 | 5%
CC(C)[C@H](NC(N)=O)C(=O)Nc1ccc(OCc2ccccc2)cc1 | 13 | . | -3 | -2.6 | 3%
CN1CCN(c2ccc(S(=O)(=O)N3CCCCC3)cc2NC(=O)Cc2ccccc2F)CC1 | -5 | -24 | 2 | 2.7 | -5%
CCOC(=O)c1nnn(-c2nonc2N)c1-c1cccc2ccccc12 | -3 | -4 | -2 | -0.1 | -1%
CCOC(=O)N1CCC(N2CCN(c3ccccc3)CC2)CC1 | . | . | -5 | 0.9 | .
CCN1CCN(c2ccc(S(=O)(=O)N3CCCCC3)cc2NC(=O)COc2ccc(Cl)c(C)c2)CC1 | . | . | 97 | 5.9 | .
CSc1ccc(C(=O)C2CCCN(C(=O)c3ccc4c(c3)OCO4)C2)cc1 (centres undefined) | . | . | 4 | -1.5 | .
CNC(=S)N1CCn2cccc2C1c1cc(OC)c(OC)c(OC)c1 (centres undefined) | 1 | . | 1 | 1.6 | 1%
COc1cccc(NC(=O)CSc2nc3c([nH]c4ccccc43)c(=O)n2C)c1 | -1 | . | -2 | 0.3 | 5%
C=CCNCCCCOc1ccccc1 | -2 | -29 | 3 | -2.0 | -7%
COc1ccc(C(=O)Nc2nccs2)cc1OC | 4 | -42 | -2 | -0.6 | .
N#Cc1cc(-c2ccc(Cl)cc2)cnc1Sc1ccccc1 | 0 | -6 | -14 | -0.4 | 1%
CS(=O)(=O)c1ccccc1C(=O)Nc1ccc(-c2nc3ccccc3[nH]2)cc1 | . | . | 0 | -1.9 | .
CCN(CC)C(=O)Cn1cc(C(=O)C(=O)N2CCCc3ccccc32)c2ccccc21 | 5 | . | 2 | -2.3 | .
O=S(=O)(NCc1cccnc1)c1cc(Cl)ccc1Cl | -4 | -44 | -4 | 0.0 | -9%
Cc1ccc(C)c(NC(=S)NCc2cccs2)c1 | 0 | -37 | -4 | -0.9 | -4%
CCOC(=O)CNc1ncnc2nc[nH]c12 | -5 | -31 | 0 | 2.4 | 3%
COc1ccc(NC(C)=O)cc1NS(=O)(=O)c1cn(C)c(=O)n(C)c1=O | . | . | -1 | -7.2 | .
CCOC(=O)c1ccc(NS(=O)(=O)N2CCCCCC2)cc1 | -7 | -23 | -10 | 4.5 | 1%
CC(=O)NNC(=O)CCn1nnc2ccccc21 | -2 | . | -1 | 1.3 | 2%
Cc1ccc(NC(=O)CSC2=C(C#N)C(c3ccc4c(c3)OCO4)C3=C(CCCC3=O)N2)c(C)c1 (centres undefined) | 4 | -12 | 44 | . | -2% | Arbovirus inh repeat=-6
Nc1ccccc1-c1nnc(SCc2ccccc2Cl)[nH]c1=O | 9 | -51 | . | 0.5 | -3%
COCc1cc(C)nc(SCC(=O)Nc2ccccc2C)c1C#N | 1 | -33 | 3 | 1.7 | 4%
O=C(NN=C1CCCCCCC1)c1ccc(F)cc1 | 3 | . | -2 | -0.8 | -5%
COc1ccc(C(=O)CC(=O)C(=O)Nc2cccc(F)c2)cc1 | . | . | -2 | 1.0 | .
Cc1ccc(-c2cccc(C3CC=CC4C3C(=O)N(Cc3ccccc3)C4c3cc(C)ccc3F)c2)cc1 (centres undefined) | . | . | -3 | 1.5 | 1%
CCC(OC(=O)c1cc2sccc2n1C)C(=O)NCC1CCCO1 (centres undefined) | -9 | -23 | -1 | . | -7%
CN(C)CC/C=C1\c2ccccc2COc2ccccc21 | -10 | -23 | -2 | -1.1 | -5%
Nc1cc(N)nc(SCCOc2ccccc2)n1 | 13 | -9 | 0 | . | 4% | Arbovirus inh repeat=0
CC(=O)N1CCN(Cc2nc3cc(NC(=O)c4ccccc4)ccc3n2C)CC1 | 3 | 0 | -2 | 4.3 | 4%

Following part:
SMILES | Arbovirus inh | YopH PTP inh | Mtb bLac sens | RecA splice inh | Mtb H37Rv | others
Cc1ccc(OCc2nnc(SCC(=O)O)n2N)cc1 | 6 | 3 | -6 | -1.5 | -12%
Cc1ccc(-n2c(O)c(/C=N/NC(=O)c3ccncc3)c(=O)[nH]c2=O)cc1C | 0 | -27 | 99 | 0.3 | ?
O=C(c1ccccc1)c1ccc(C(=O)N2CCOCC2)cc1 | 1 | -39 | -23 | -4.5 | -10%
O=C(NCC(=O)N(c1ccc(F)cc1)C(C(=O)NC1CCCC1)c1cccnc1)c1cccs1 (centres undefined) | 7 | . | 5 | 3.1 | 2%
CN(C(=O)COc1ccccc1)c1nnc(C23CC4CC(CC(C4)C2)C3)s1 | -5 | -36 | 2 | 1.0 | 13%
CCCC(=O)c1ccc(N2CCN(S(=O)(=O)c3ccccc3)CC2)c(F)c1 | 16 | -41 | 0 | 5.4 | 12%
Cc1ccc(-c2cn(S(=O)(=O)c3cccc([N+](=O)[O-])c3)nc2N)cc1 | -3 | . | 0 | -1.1 | 3%
O=C(CN(Cc1ccccc1F)C(=O)c1csnn1)NC1CCCCC1 | . | . | 7 | 2.0 | .
CCOc1ccccc1NC(=O)c1ccc2c(c1)C(=O)N(C(C)(C)C)C2=O | . | . | 6 | -0.4 | .
COc1ccccc1NC(=O)c1oc2ccccc2c1NC(=O)C1CC1 | . | . | ? | 1.4 | .
C(=C\c1ccccc1)/C=N/Nc1nc(N2CCCCC2)nc(N2CCCCC2)n1 | -4 | -36 | 43 | -2.1 | 7%
O=C(CCC(=O)NNC(=O)COc1ccccc1)NCc1ccccc1 | 2 | -18 | 2 | 3.1 | 1%
O=C(N/N=C/c1ccncc1)c1cnccn1 | . | . | 7 | 0.8 | -6%
COc1ccc(-c2nnc(-c3ccc(C)cc3)o2)cc1 | . | . | 55 | 2.8 | .
CCOC(=O)CC1=C(C(=O)OCC)C(c2ccc(OC)cc2OC)C(C#N)=C(N)O1 (centres undefined) | -8 | 1 | -2 | -4.1 | -1%
CCOc1ccc(/C=N/O)cc1 | -3 | -14 | -3 | 1.8 | 10%
O=C(CCS(=O)(=O)c1ccc(Cl)cc1)N1CCN(S(=O)(=O)c2cccs2)CC1 | -2 | -4 | 2 | 0.8 | .

High-throughput results from PubChem BioAssay.
